Screens as filed in PubChem BioAssay.
Beta cell apopt: beta cell apoptosis inhibition | INS-1E cytokine-induced death, ATP luminescence, 48 h; percent of positive-control rescue, neutral wells zero | protection from apoptosis, % (test concentration not listed) | actives 0.8% (n = 300,000);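 active = all replicates at 75% or more, or half of them and the mean; inconclusive = half reach 75% but not the mean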;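 note: 0% = cytokine-treated negative control wells and 100% = positive control rescue; higher means more ATP so stronger rescue from cytokine killing; wells of about 40 µL received 100 nL stock; the first replicate is given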
Bfl-1 A1 inh: inhibitors of the anti-apoptotic protein A1, read as caspase activation; caspase activation, % (no concentration beside the values); actives 0.066% (n = 330,000); AID 2462; MEF A1-2A-BIM cells, Caspase-Glo 3/7 luminescence, 3 h; percent of clofoctol response, vehicle zero;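 active = over half of replicate activation scores above 10%, or exactly half above 10 with the replicate mean above 10; inconclusive = replicate mean below 10 yet half the replicates above 10; inactive = over half of replicates below 10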;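 note: wells of about 30 µL received 50 nL stock; many hits fall short of the cut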
LANA-H2B inh: blocks KSHV LANA binding to histone H2A/H2B; cell-free LANA-H2A/H2B peptide, fluorescence polarization; inhibition, % (test concentration not listed); AID 2629; actives 0.6% (n = 320,000); in the data active = inhibition mostly above about 10%, no sharp cut-off; inactive = mostly below about 6.7%;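 note: stock transfer was 7.5 nL into about 10 µL; 0% = median of vehicle wells and 100% = median of positive control wells; one replicate is shown; the record names a cut of 25% in any replicate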
RanGTP-Imp inh: disruptors of Ran-importin-beta complex formation – biochemical, FRET, CFP-Ran, YFP-importin-beta, homogeneous, primary screen; cell-free CFP-Ran/YFP-importin-beta FRET ratio; inhibition, % (concentration not given with the values); actives 1.1% (n = 300,000); AID 2216;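 active = most replicates above 15%; inconclusive = exactly half above 15%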;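 note: 0% = DMSO wells and 100% = Ran loaded with GDP instead of GTP; wells of about 40 µL received 100 nL stock; the first replicate is given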
T cruzi repl: blocks replication of Trypanosoma cruzi | T. cruzi beta-gal in NIH3T3, luminescence, 90 h | inhibition, % (no concentration beside the values) | actives 1.4% (n = 300,000) | AID 1885;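 active = mean inhibition across valid replicates above about 55%, limit read from the data; inconclusive = mean below that limit but half or more replicates reach it; inactive = mean below it, under half of replicates reach it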;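 note: signal also drops with host cell toxicity which is not excluded here; 0% = plate median of DMSO wells and 100% = zero luminescence signal; higher percent means less beta-gal luminescence so fewer parasites; stock transfer was 50 nL into about 50 µL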
Calb FLC: affects C. albicans growth with fluconazole | growth inhibition, % (concentration not given with the values) | actives 0.57% (n = 300,000) | C. albicans CaCi-2 (fluconazole-resistant clinical isolate) + fluconazole, Alamar Blue growth, 48 h;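 active = most replicates above 75%; inconclusive = exactly half above 75%; inactive = most below 75%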;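 note: all wells also contain fluconazole at 8 µg/ml as a sub-toxic cotreatment; 0% = median of DMSO wells and 100% = median of geldanamycin control wells; wells of about 8 µL received 7.5 nL stock; the first replicate is given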
UCH37 inh: inhibitors of human deubiquitinating enzyme UCH37; Q9Y5K5; purified proteasome/UCH37, Ub-AMC cleavage fluorescence; inhibition, % (test concentration not listed); actives 0.33% (n = 330,000);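 active = mean of two replicates above 20%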;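 note: 0% = compound-free wells with enzyme and 100% = wells lacking proteasome; stock transfer was 100 nL into about 20 µL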
Target sequence (Q9Y5K5 whole entry, looked up): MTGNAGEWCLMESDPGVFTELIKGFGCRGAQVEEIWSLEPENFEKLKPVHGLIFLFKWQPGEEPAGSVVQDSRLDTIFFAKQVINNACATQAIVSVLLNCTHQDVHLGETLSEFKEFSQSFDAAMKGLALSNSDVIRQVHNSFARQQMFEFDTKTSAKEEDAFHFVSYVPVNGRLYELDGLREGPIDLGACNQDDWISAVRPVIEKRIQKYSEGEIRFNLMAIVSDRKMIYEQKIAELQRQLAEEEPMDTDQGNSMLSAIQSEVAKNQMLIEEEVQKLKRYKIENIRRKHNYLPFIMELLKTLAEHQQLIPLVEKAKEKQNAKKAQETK
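Assay system: Proteasome-bound UCH37. Buffer or medium: pH 7.4 Tris-HCl (50 mM) with ovalbumin, ATP-MgCl2, DTT. Incubation: 30 min preincubation with enzyme, 25 min cleavage at room temperature. Measured by: fluorescence, ex 355 nm, em 460 nm. Read-out basis: percent inhibition. Control set: wells without proteasome as full block, compound-free enzyme plus substrate as uninhibited.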
B2AR ag: activates human beta-2 adrenergic receptor causing internalization; response, % (test concentration not listed); Am2.2-beta2AR cells, FAP receptor internalization, flow cytometry; reference of the scale not given here; actives 0.43% (n = 340,000);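 active = response above a set limit, near 3 SD of response in nonfluorescent compounds, cut at about 42% in these data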;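 note: stock transfer was 100 nL into about 11 µL; a reference agonist was the positive control; negative values mostly stem from fluorescent compounds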
Target sequence (P07550 whole entry, looked up): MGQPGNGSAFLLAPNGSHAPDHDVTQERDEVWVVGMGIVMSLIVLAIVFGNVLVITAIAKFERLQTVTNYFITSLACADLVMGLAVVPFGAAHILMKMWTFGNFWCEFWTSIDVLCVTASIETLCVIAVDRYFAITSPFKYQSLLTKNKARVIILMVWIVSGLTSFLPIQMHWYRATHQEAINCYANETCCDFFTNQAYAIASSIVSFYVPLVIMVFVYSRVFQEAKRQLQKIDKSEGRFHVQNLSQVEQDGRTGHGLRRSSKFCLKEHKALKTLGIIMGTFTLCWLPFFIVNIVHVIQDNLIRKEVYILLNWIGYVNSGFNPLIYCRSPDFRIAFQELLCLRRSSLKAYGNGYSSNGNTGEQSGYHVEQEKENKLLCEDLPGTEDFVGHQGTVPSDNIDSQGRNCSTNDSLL
An asterisk follows results filed as active; ? = inconclusive; nt = not tested or not shown.

SMILES,Beta cell apopt,Bfl-1 A1 inh,LANA-H2B inh,RanGTP-Imp inh,T cruzi repl,Calb FLC,UCH37 inh,B2AR ag
O=C(NC12CC3CC(CC(C3)C1)C2)C1CCCN1C(=O)NC1CCCCC1 (stereo not given),nt,-0.1,-1.6,0.1,18,-14,1.5,-10
CCc1nc(N2CCOCC2)c(C#N)c2c1COC(C)(C)C2,-9,0.7,-2.6,?,10,1,-35,0
Cc1ccc(CSc2nc3ccncc3n2CC(=O)Nc2cc(C)cc(C)c2)cc1,13,1.2,-4.4,-2.4,-15,2,6.5,15
CC(=O)Nc1cccc(NC(=O)CCn2cnc3cc(C)c(C)cc32)c1,-7,0.2,-4.2,1.3,-9,4,5.2,0
N#Cc1c(-c2ccccc2)nc(SCc2ccc(Cl)cc2)[nH]c1=O,-11,1.8,9.2,-2.8,-20,29,nt,1
O=C(Nc1cc(Cl)ccc1-n1cncn1)c1ccc(F)c(S(=O)(=O)N2CCOCC2)c1,1,0.0,-0.8,-2.4,11,nt,-1.3,2
CCOC(=O)N1CCN(C(=O)CSC2=NS(=O)(=O)c3cc(F)ccc3N2)CC1,-7,0.5,0.2,7.1,-8,-1,0.4,-7
Cc1ccc(-n2c(-c3ccncc3)nnc2-c2ccco2)cc1,-5,0.1,2.5,-4.3,-1,6,-0.8,-2
Cc1ccc([N+](=O)[O-])cc1N(CC(=O)Nc1ccc(S(=O)(=O)Nc2cccc(C(F)(F)F)c2)cc1)S(C)(=O)=O,99*,-0.1,nt,?,61*,1,0.4,26
O=C(N/N=C1/CC(c2ccccc2)Oc2ccccc21)C1CC1 (stereo not given),-1,0.2,2.9,-0.8,-14,17,nt,-6
CCCCP(=O)(CCCC)CCP(=O)(c1ccccc1)c1ccccc1,-6,1.3,-1.7,3.8,-22,-18,3.9,2
c1ccc2c(c1)nc(Nc1ccc(N3CCCCC3)cc1)c1nncn12,-4,-1.2,2.6,0.4,37,-7,nt,-6
Cc1[nH]c2ccccc2c1C(=O)COC(=O)Cn1c(C)nc2ccccc21,1,0.3,-1.6,5.9,0,-3,1.5,0
COc1ccc(CNC(=O)[C@H](C)NC(=O)N2CCn3c2nc2ccccc23)cc1,nt,0.5,3.0,8.8,1,-3,3.6,-14
Cc1cc2ccccn2c1C(=S)NC(=O)c1ccccc1,2,0.8,-4.3,3.7,-7,-4,7.8,-7
Cc1ccc2nc(SCC(=O)Nc3cc([N+](=O)[O-])ccc3F)[nH]c2c1,3,?,-9.0,3.4,4,-2,1.9,-6
CCOC(=O)C1CCCN(S(=O)(=O)c2ccc(Cl)nc2)C1 (stereo not given),-2,-1.1,1.8,nt,0,1,-0.8,-3
CCOC(=O)c1c(/N=C/C2=C(O)CCCC2=O)sc(C)c1C,-1,0.2,8.9,2.6,9,-2,nt,5
Cc1ccc(C)c(C(=O)CCC(=O)NNC(=O)c2cccs2)c1,2,-0.6,-2.6,nt,nt,nt,4.5,2
CCc1ccc(OCc2ccc(C(=O)O)o2)cc1,-3,-7.3,1.3,0.4,-10,5,2.2,7
CCc1nnc(NC(=O)c2cccs2)s1,-3,-2.5,-1.4,6.6,-5,8,4.2,-10
CCOC1=C/C(=C/c2c(N)n3nc(-c4ccccc4)sc3nc2=O)C=CC1=O,nt,nt,nt,-1.2,-7,37,6.9,4
CNc1nc(-c2ccc3c(c2)CCN3C(=O)c2ccccc2C)cs1,6,-0.5,9.5,-6.1,1,4,6.5,9
COc1cc2c(cc1OC)-c1cc3ccc(OC)c(OC)c3c[n+]1CC2,19,-0.6,-0.4,nt,nt,nt,4.6,4
CCOC(=O)c1c(C)[nH]c(C)c1C(=O)CSc1nnnn1-c1ccccc1,-8,0.0,-8.1,0.0,11,-7,3.7,-12
CC(C)CN(C(=O)COC(=O)Cc1n[nH]c(=O)c2ccccc12)C1CCS(=O)(=O)C1 (stereo not given),-2,?,2.0,8.7,-5,-3,3.4,-1
Cc1ccc(-c2cc(Cc3ccccc3)c(=O)[nH]n2)cc1,nt,-0.3,-0.5,-4.5,16,-14,6.2,10
CCC(C)(C)NC(=O)CN(C(=O)c1csnn1)c1cccc2c1CCCC2,-1,-0.5,-4.2,1.1,0,-1,3.4,-2
COc1cccc(OCc2cc(/C=N/Nc3ccc(C(=O)O)cc3)ccc2OC)c1,-24,-3.4,2.3,-5.9,13,1,nt,2
O=C(COC(=O)c1ccc(O)cc1)Nc1ccccc1-c1ccccc1,-2,-1.0,-4.7,4.0,8,5,0.2,11
CCCCC(=O)NC1=C(C(=O)OC)SCC1,-1,-0.6,-0.4,-4.0,-16,2,5.1,-5
CCCCOC(=O)c1ccc(NC(=O)C(=O)NCc2ccccn2)cc1,-4,0.1,-3.4,2.7,-19,-17,5.2,-10
CCN(CCO)Cc1csc2cc(C)ccc12,-2,1.1,-2.6,-1.5,1,-4,3.3,-4
CC(Oc1ccc(Cl)cc1Cl)C(=O)OCn1nnc2ccccc2c1=O (stereo not given),-12,-0.3,-6.3,-0.6,1,12,3.3,-11
O=C(/C(C=Nc1cc2c(oc1=O)CCCC2=O)=C(\O)c1ccccc1)c1ccccc1,-10,-0.3,-2.4,0.9,3,1,10,2
COc1ccc(NC(=O)C2CCC(CNS(=O)(=O)c3cccs3)CC2)cc1 (stereo not given),-7,0.2,-11,1.6,-20,-8,1.7,-3
CCC1Oc2ccccc2C(=O)N(CC(=O)c2ccc3c(c2)OCCO3)C1=O (stereo not given),-2,-2.2,1.7,1.2,-5,-8,1.7,12
CC(C)Cc1cc(C(=O)Nc2cccnc2)no1,1,-5.0,-5.9,0.4,-20,-3,-0.9,-1
COc1cc(OC)c(N(C)S(=O)(=O)c2cccc(C(=O)OCC(=O)N3CCOCC3)c2)cc1Cl,-6,-0.5,-4.4,nt,nt,nt,1.9,6
Cc1cc(=O)oc2cc(OCC(=O)N3CC[C@@]4(O)CCCC[C@H]4C3)c(Cl)cc12,nt,1.4,-9.5,-0.4,-1,-3,-11,-8
O=C(COC(=O)c1sc2ccccc2c1Cl)NC1CCCCC1,-12,-0.6,0.6,6.4,-12,-8,1.9,-2
O=C(NCCCn1ccnc1)Nc1cccc(Cl)c1,1,-0.3,0.4,-2.6,4,-7,5.3,-7
O=C1c2ccc3c4c(ccc(c24)C(=O)N1NC(=O)C(F)(F)F)CC3,-3,0.5,-0.5,-1.6,-21,-3,-98,4
COc1cc(/C=C/C(=O)OCC(=O)NC2CC2)cc(S(=O)(=O)N2CCc3ccccc32)c1OC,-9,-0.4,4.1,2.7,-10,0,5.8,2
COc1ccc(/C=C2\Oc3cc(OCC(=O)N4CC(O)C[C@H]4C(=O)O)ccc3C2=O)cc1OC (stereo not given in full),-1,-0.5,5.8,-67,-12,-4,12,3
O=C(Nc1cc(C(F)(F)F)ccc1-n1cncn1)c1ccc(-c2ccccc2)cc1,0,0.1,-4.8,-1.3,74*,30,3.7,-10
CCC(=O)NC(Nc1sc2c(c1C(=O)OC)CCC2)C(Cl)(Cl)Cl (stereo not given),-6,0.9,-5.5,-1.2,25,-6,3.5,8
CCCC(=O)Nc1cc(C)c(NC(=O)c2ccncc2)cn1,-4,0.9,-1.8,-1.4,-5,8,0.9,15
Cc1ccc(C(=O)Nc2cccc3[nH]c(C(F)(F)F)nc23)cc1,78*,-0.5,0.4,0.2,9,24,-2.2,-3
CSc1ncccc1C(=O)Nc1nnc(C2CC2)s1,0,-1.2,-6.6,-3.7,-12,45,4.5,-4

Next records
SMILES,Beta cell apopt,Bfl-1 A1 inh,LANA-H2B inh,RanGTP-Imp inh,T cruzi repl,Calb FLC,UCH37 inh,B2AR ag
CCOC(=O)Cc1csc(NC(=O)COc2ccc(C)cc2)n1,-2,0.0,2.8,-1.8,-4,-22,-2.9,-2
COC(=O)[C@]1(C)N[C@H](c2ccc(-c3ccccc3)cc2)[C@@H]2C(=O)N(C)C(=O)[C@@H]21,-3,0.3,-0.3,2.9,-22,-8,0.8,2
CCCCCCCCSc1n[nH]c(N)n1,0,0.2,-1.2,-0.3,-9,?,4.3,6
O=C(O)C(F)=C1c2ccccc2-c2ccccc21,-4,0.6,-0.3,5.2,-13,-1,4.9,0
COc1ccc(OC)c(S(=O)(=O)NCCCn2ccnc2)c1,-2,?,8.1,-3.2,1,2,3.2,-26
CCc1cccc(NC(=S)N(CCN(C)C)C2CCN(C(C)C)CC2)c1,nt,0.3,-0.1,3.2,-12,-5,5.4,1
O=S(=O)(Nc1ccc(-n2cnnn2)cc1)c1ccc(Cl)cc1,6,-0.6,4.9,nt,nt,nt,3.7,6
Clc1ccc(N2CCN(/N=C/c3ccncc3)CC2)cc1,4,0.0,-0.9,-5.3,34,-15,nt,2
CN1C(=O)C(=O)/C(=C(/O)c2ccc(Br)cc2)C1c1ccccc1F (stereo not given),0,0.4,1.2,0.8,-8,-8,12,-4
COC(=O)c1sccc1NC(=O)c1ccccc1[N+](=O)[O-],-5,-0.5,3.6,-1.2,-10,8,2.8,10
O=C(CSc1nc(=O)n(CCN2CCOCC2)c2c1CCCC2)Nc1ccc(F)cc1F,-2,?,4.7,-3.8,9,-3,0.9,-8
COc1cc(/C=N/Nc2ccc(S(N)(=O)=O)cc2)cc(OC)c1OC,2,-0.7,-0.2,1.2,-16,-20,nt,2
CCOC(=O)Cc1cc(=O)n2[nH]c(C)c(-c3ccccc3OC)c2n1,-4,0.9,2.3,1.1,7,13,-2.5,3
CC(C(=O)N1CCc2ccccc21)N1CCN(c2ccccn2)CC1 (stereo not given),-1,0.5,-0.3,1.9,-8,-3,1.6,2
CCNCC(=O)N1c2ccccc2CCc2ccc(NC(=O)OCC)cc21,0,-2.6,-2.9,0.7,22,0,3.5,0
Cc1cccc(C(=O)Nc2cccc(C(=O)N3CCOCC3)c2)c1,1,0.8,-0.3,6.6,-3,23,0.7,-3
CCN(CC)CCNC(=O)CS(=O)Cc1nc(-c2ccc(C)cc2)oc1C (stereo not given),-1,0.4,-1.1,?,-15,-16,-0.2,0
CCOC(=O)N/N=C(\C)c1cccs1,-3,0.5,2.5,1.1,5,1,nt,-2
O=C(NN=C1CCC(=NNC(=O)c2cccnc2)CC1)c1cccnc1,-3,0.2,-6.2,?,-8,-12,1.6,-1
CCCCn1c(N)c(N(CCC(C)C)C(=O)C(C)N2C(=O)c3ccccc3C2=O)c(=O)[nH]c1=O (stereo not given),-4,1.2,-1.4,?,-12,5,-0.5,20
Cc1ccc(-c2ocnc2C(=O)N2CCN(C(=O)c3cccs3)CC2)cc1,6,0.8,2.6,3.2,3,-5,4.7,-11
